D2 PAM – human D2 receptor positive allosteric modulation. P14416. 360,000 compounds, 0.23% hits. AID 624464. potentiation, % (concentration not given with the values). DiscoveRx D2 beta-arrestin cells, luminescence, 90 min; 100% = 57 uM dopamine signal; active = potentiation of 50% or more; inconclusive = 30% to 50%; inactive = 30% or less;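 further: tested on top of an EC20 dose of dopamine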
Target sequence (P14416 whole entry, looked up): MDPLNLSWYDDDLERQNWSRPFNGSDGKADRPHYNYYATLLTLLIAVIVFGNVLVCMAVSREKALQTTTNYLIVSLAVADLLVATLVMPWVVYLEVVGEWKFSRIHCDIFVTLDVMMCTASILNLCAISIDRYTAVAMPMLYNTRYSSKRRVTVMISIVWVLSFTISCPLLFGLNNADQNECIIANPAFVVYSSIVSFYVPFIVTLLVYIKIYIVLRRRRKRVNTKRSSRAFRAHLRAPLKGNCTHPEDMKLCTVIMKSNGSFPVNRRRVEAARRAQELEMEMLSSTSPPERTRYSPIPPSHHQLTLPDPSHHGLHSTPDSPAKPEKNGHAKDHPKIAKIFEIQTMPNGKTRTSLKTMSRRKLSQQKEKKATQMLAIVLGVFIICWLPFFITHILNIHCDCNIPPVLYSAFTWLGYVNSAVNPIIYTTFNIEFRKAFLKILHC
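PathHunter D2 cells, attached overnight at 37 deg C, received compound in DMSO plus dopamine at EC20 (50 nM final) for 90 min at 37 deg C. Beta-arrestin recruitment was read as luminescence after 1 h with detection reagent at ambient temperature.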
TRPML1 ag – activates the human TRPML1 channel | 410,000 compounds, 0.12% hits | TRPML1-expressing cells, Ca2+ dye fluorescence, FDSS; host cell line not named in the record; reference of the full effect not given here | activation, % (no concentration beside the values); in the data active = activation above about 50%; inconclusive = about 30% to 50%; inactive = below about 30%; further: 0% is about no effect; the text of the record puts the active cut at 80%
Target sequence (Q9GZU1 whole entry, looked up): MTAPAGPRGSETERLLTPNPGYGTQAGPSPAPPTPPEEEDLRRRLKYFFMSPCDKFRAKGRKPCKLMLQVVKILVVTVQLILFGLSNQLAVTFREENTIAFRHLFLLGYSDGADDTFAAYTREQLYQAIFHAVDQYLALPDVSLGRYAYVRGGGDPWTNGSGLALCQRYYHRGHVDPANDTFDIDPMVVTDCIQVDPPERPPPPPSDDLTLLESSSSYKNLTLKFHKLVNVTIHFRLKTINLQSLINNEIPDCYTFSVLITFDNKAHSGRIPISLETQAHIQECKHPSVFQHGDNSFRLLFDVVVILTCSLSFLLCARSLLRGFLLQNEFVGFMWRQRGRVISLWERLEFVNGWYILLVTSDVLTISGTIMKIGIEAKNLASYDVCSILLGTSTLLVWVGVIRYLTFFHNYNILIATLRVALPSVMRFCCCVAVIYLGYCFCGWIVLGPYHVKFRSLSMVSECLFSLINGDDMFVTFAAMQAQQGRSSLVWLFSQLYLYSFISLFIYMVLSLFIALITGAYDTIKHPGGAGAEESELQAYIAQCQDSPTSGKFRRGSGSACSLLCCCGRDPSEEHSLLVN
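Agonist activity was taken from a 110 s kinetic Ca2+ dye read on the FDSS after pinning compounds onto TRPML1-DL cells. The cells were seeded at 1,500/well with Tet inducer, incubated about 16 h, then dye-loaded at room temperature.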
D2 agonist – agonists of human D2 dopamine receptor (beta-arrestin); P14416; DiscoveRx PathHunter D2 beta-arrestin, luminescence, 90 min; 100% = 57 uM dopamine signal; activation, % (concentration not given with the values); 360,000 compounds, 0.084% hits; AID 624465; in the data active = activation above about 40%; inconclusive = about 15% to 40%; inactive = below about 15%; further: the text of the record calls up to 30% inactive
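DiscoveRx PathHunter D2 beta-arrestin cells (2,100/well) attached overnight, then compound-stimulated 90 min at 37 C in HBSS/10 mM HEPES/0.1% Tween-20 buffer; beta-galactosidase complementation read by luminescence after 1 h at ambient temperature. Dopamine 57 uM final (EC100) as control.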
PINK1 modulator – changes PINK1 expression; 410,000 compounds, 0.2% hits; PINK1 immunofluorescence, high-content cytometry, 24 h; Potency, µM (series often up to 76.6 µM), for the others: at the highest dose activation (PINK1 increase), usual class: activators; active = well fitted activation curve with a large enough effect; inconclusive = small, poorly fitted or top-dose-only effect; inactive = flat fitted curve, though single readings scatter; cell line not stated here;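 further: potency means the concentration at half of the fitted maximal effect; % of control where 0% means no effect; nearly all actives have a fitted effect of over 65% in size; a mitochondrial uncoupler was the plate control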
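Fluorescence from anti-PINK1 antibody, together with nuclear and cell stains, was scanned on a laser-scanning cytometer. Before staining, stable-line cells were incubated 24 hours with compounds at 5 concentrations; primary antibody 12 h at 10 degrees C.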
Six1-Eya2 blk – blocks human Six1 binding to Eya2; AID 651725; AlphaScreen GST-Six1/His-Eya2 binding, biochemical; hits give low values; control for the full effect not named in the record; 360,000 compounds, 0.56% hits; activity change, % (concentration not given with the values); Q15475+O00167; in the data active = activity change below about -65%; inconclusive = about -30% to -65%; inactive = above about -30%; further: on the % scale 0 is the no-effect control and ±100 the full control effect
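AlphaScreen luminescence read after one hour at 37 °C in darkness. Pin-transferred compounds met GST-Six1 and His-Eya2 protein (5X stock 250 nM/500 nM) plus glutathione donor and Ni-chelate acceptor beads (5X, 50 ug/mL).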
TRPML1 inh – human mucolipin-1 channel inhibition; Q9GZU1; TRPML1-inducible cells, Ca2+ dye fluorescence, FDSS; hits give low values; inhibition of EC80 agonist-evoked calcium signal; activity change, negative = inhibition, % (test concentration not listed); 390,000 compounds, 0.02% hits; in the data active means activity change below about -50%; inconclusive means about -30% to -50%; inactive means above about -30%;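 further: stimulus is agonist 54-4 at its EC80 concentration; on the % scale 0 is the no-effect control and ±100 the full control effect; compound concentration not given in the record; the text of the record puts the active cut at -80%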
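Tet-induced TRPML1-DL cells loaded with Ca8 no-wash calcium dye were read kinetically on FDSS. Compound addition was followed by EC80 agonist 54-4 (4 uM final); inhibition was read over 110 s.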
* marks the source's active call; other numbers are inactive results; ? = inconclusive; . = not tested or not shown; & = joins results of further samples; [ ] = remark or other dose. Compounds as they come (roughly 1% active in at least one column).

SMILES	D2 PAM	TRPML1 ag	D2 agonist	PINK1 modulator	Six1-Eya2 blk	TRPML1 inh
CCOc1ccccc1N(CC)C(=O)c1cc2c(=O)[nH]c3ccc(C)cc3c2s1	.	-0.9	.	1.7%	.	-16
O=C(Nc1ccc(Cl)cc1)Nc1nc(-c2ccccc2O)cs1	-11	-0.4	3.9	?	2	-2
O=C(NCCC1=CCCCC1)C1CCN(S(=O)(=O)c2cccc(C(F)(F)F)c2)CC1	1	1.2	1.5	0.6%	1	-5
N#Cc1c(-c2ccncc2)c2c([nH]c1=S)CCCC2	-8	-0.5	1.8	-0.3%	2	21
O=C(CCc1nnc2ccc(NCc3ccccc3Cl)nn12)NCC1CCN(C2CCCC2)C1 (stereo not given)	-17	0.2	-3.1	3.1%	-7	-3
O=C1Nc2ccc(Br)cc2C12OCCO2	-3	0.5	-3.2	-1.3%	0	5
CC(=O)c1ccc(C)cc1OC(=O)c1cccc(F)c1	0	3.9	-1.6	?	1	-4
CCCN(CCC)C(=O)Cn1c(=O)n(-c2ccc(C)cc2)c(=O)c2ccc(C(=O)NCc3ccccc3Cl)cc21	.	3.1	.	-2.1%	.	10
CC(C)[C@H](NC(=O)c1ccccc1)C(=O)OCC(=O)NCC1CCCO1 (stereo not given in full)	1	0.1	0.2	-1.9%	5	34
O=[N+]([O-])c1ccccc1-c1ccc(C(=S)N2CCN(c3ccccc3)CC2)o1	-10	0.1	1.0	-0.5%	-13	-11
O=C(CN(c1ccccc1)S(=O)(=O)c1ccc(Cl)cc1)Nc1ccccc1C(=O)N1CCCC1	-10	1.2	-0.3	2.8%[38.3 µM]	-4	30
O=C(CN1C(=O)CCc2cc(Br)ccc21)Nc1ccc(OC(F)(F)F)cc1	.	1.6	.	-1.7%	.	7
CC1CC(C)CN(CCOc2cccc(Cl)c2Cl)C1 (stereo not given)	16	0.8	41*	9.7%	2	8
Cc1ccccc1Cn1c2ccccc2c2cnn(CC(=O)NCCc3ccc(Cl)cc3)c(=O)c21	.	0.9	.	3.9%	.	15
Cc1onc(-c2ccccc2Cl)c1C(=O)Nc1ccc(F)c(F)c1	-10	0.0	-0.8	.	3	-13
CN(c1ccccc1)S(=O)(=O)c1ccc(C(=O)NNC(=O)c2ccccc2)cc1	0	0.6	4.2	0.4%	-2	-5
COc1cccc(/C=N/NC(=O)CSCC(=O)Nc2ccccc2)c1O	-6	-0.5	-2.1	0.7%[38.3 µM]	-70*	-5
Cc1ccccc1OC1CCN(C(=O)C2CCC(=O)N(C3CCCC3)C2)CC1 (stereo not given)	-6	2.1	-5.2	2.1%	-2	11
COc1cc(/C=C/c2cc(C(F)(F)F)[nH]c(=O)n2)cc(OC)c1OC	-12	-0.3	-0.4	-2.0%	7	-25
CN(Cc1cccnc1)C(=O)CNC(=O)COc1ccccc1	-6	-0.5	-4.3	0.7%	9	-9
O=C(Cc1cccc(NC(=O)C2CCCN(C(=O)CCc3ccccc3)C2)c1)Nc1cccc(C(=O)N2CCCC2)c1 (stereo not given)	5	2.3	1.2	0.7%	-2	14
CC(NC(=O)COC(=O)C1=NN(c2ccccc2)C(=O)CC1)c1ccccc1 (stereo not given)	3	3.0	-4.4	-0.3%	4	13
CC(C)Oc1ccccc1/C=N/Nc1ccccc1[N+](=O)[O-]	-2	-0.2	-2.2	5.6%	-72*	-9
CCCn1c(N)c(C(=O)CSc2nnc(-c3cccnc3)n2-c2ccc(C)cc2C)c(=O)[nH]c1=O	-2	1.6	0.8	12%	-8	-19
Cc1ccc(SCC(=O)Nc2ccc(S(N)(=O)=O)cc2)cc1	-5	-0.6	2.9	1.7%	4	-5
CCN(CC)CCC#CC1(O)c2ccccc2-c2ccccc21	-15	-0.4	-5.9	-0.2%	-3	0
CCc1ccccc1NC(=O)/C(=C/c1ccco1)c1ccccc1	-5	2.6	-4.7	-1.7%	3	10
Cc1ccc(-n2c(SCC3CCCCO3)nnc2-c2ccco2)cc1 (stereo not given)	-15	-0.6	-2.2	2.3%	-3	0
CCN(CC)C(=O)[C@H]1C[C@H](CC(=O)NCc2ccc(OC)c(OC)c2)C(=O)N2CCc3c([nH]c4ccc(Cl)cc34)[C@]12C	-7	5.4	-2.6	1.6%	-9	23
COc1cccc2c1CCC1=CC(=O)CCC12C (stereo not given)	-2	-0.2	-0.8	-1.9%	8	5
CCO[C@@H]1OC(C(N)=O)=C[C@H](c2ccccc2)[C@H]1CCCO	-29	-0.8	-3.0	-0.2%	0	-7
CCCc1ccc(OCC(=O)Nc2scc(-c3cccs3)c2C(=O)OC)cc1	.	-0.2	.	1.3%	.	8
CC(=O)NS(=O)(=O)c1ccc(NC(=S)NC(=O)C2CCC2)cc1	-4	-0.3	-3.2	1.9%	2	2
O=C(c1ccc(=O)[nH]c1)N1CCN(S(=O)(=O)c2ccc3ccccc3c2)CC1	1	3.7	7.1	1.4%	3	0
Cc1ccc2oc(=S)n(C)c2c1	-2	-0.1	-1.1	-2.4%	2	26
CCc1cccc(NC2c3ccccc3C(=O)N2c2cccnc2)c1 (stereo not given)	-6	0.8	-3.9	1.3%	-3	-2
COc1ccc(-c2noc(CN3CCOCC3)n2)cc1OC	-7	-0.7	0.5	-1.2%	7	33
CCOC(=O)C(=CNNc1ccsc1C(=O)OC)C(=O)OCC	-3	3.4	-6.1	-1.1%	-3	-3
Cc1cc(C)c2nc(N3CCC(C(=O)NCc4cccnc4)CC3)sc2c1	1	0.1	0.5	8.4%	5	3
COc1cccc2cc(CC(=O)c3ccccc3)c(=O)oc12	-11	1.7	-1.8	0.2%	-1	-9
Cc1oc2ccc(O)c(CN(C)Cc3ccccc3)c2c1C(=O)Nc1cccc(Cl)c1C	.	1.2	.	6.0%	.	29
CCCN(CCC)Cc1cc(=O)oc2cc3c(cc12)CCC3	-11	-0.3	-0.3	?	10	18
S=C(NC1CCCC1)N1CCN(c2ccccn2)CC1	-5	0.5	-1.3	2.2%	-1	7
Nc1ccc(S(N)(=O)=O)cc1N	4	-0.8	6.6	2.1%	?	2
COc1cccc(NC(=O)CN(C)C(=O)Cn2cnc3ccccc3c2=O)c1	10	0.8	0.6	-0.9%	13	3
Cc1cc(C(=O)NNC(=O)/C=C/c2ccco2)c(C)o1	0	0.1	-0.7	-5.2%	?	-15
CC(C)NC(=S)N/N=C1\CCCCC1C1CCCCC1 (stereo not given)	-26	11	-10	5.8%[38.3 µM]	?	6
Cc1cc(C(=O)C(C)OC(=O)c2ccc(NC(=O)CC#N)cc2)c(C)n1-c1ccccc1 (stereo not given)	-2	1.6	1.3	1.5%	-14	6
CCOC(=O)C1CCN(C(=O)CN(c2ccc(Cl)c(C(F)(F)F)c2)S(C)(=O)=O)CC1	-16	0.1	-3.1	0.5%	0	9
COC(=O)c1ccccc1NC(=O)C1CC(=O)N(c2ccc(C)cc2)C1 (stereo not given)	0	-0.2	1.9	4.3%	3	1
CC1CCCN(Cc2cccc(Oc3ccccc3)c2)C1 (stereo not given)	-28	0.6	-0.1	.	1	8
O=C(CCCc1ccccc1)NCc1ccc2c(c1)OCO2	3	-0.2	-1.7	1.4%	0	2
CCOc1ccc(CNC(=O)C2CCN(C(=O)c3ccc(-n4ccc5ccccc54)s3)CC2)cc1	.	3.6	.	1.3%	.	25
CCOc1ccc(NC(=O)COC(=O)c2n[nH]c3ccccc23)cc1	-6	0.2	-1.9	11%	-7	-2
O=C(NCCCCc1ccccc1)c1nn(-c2ccccc2F)nc1CO	.	1.6	.	0.4%	.	8
O=C(Nc1cccc2nsnc12)c1ccc(F)cc1	-15	2.2	-1.7	-0.4%	21	8
CN(CC(=O)Nc1ccccc1C(F)(F)F)C(=O)Cc1ccc(S(=O)(=O)N2CCOCC2)s1	11	-0.2	0.2	-1.5%	1	-24
CCCc1[nH]n(-c2nc3ccccc3s2)c(=O)c1C=NCCCN(CC)CC	-10	1.1	-1.4	1.8%	1	4
O=C(NC(c1ccccc1)c1ccccn1)c1cccc([N+](=O)[O-])c1 (stereo not given)	-6	1.5	-6.2	2.6%	-8	14
Cc1ccc(-c2nc3ccc(Br)cn3c2Cc2ccsc2)cc1	-6	-0.3	-4.4	8.1%	-7	-13

Additional results
SMILES	D2 PAM	TRPML1 ag	D2 agonist	PINK1 modulator	Six1-Eya2 blk	TRPML1 inh
Cc1ccc(S(=O)(=O)NCC(=O)N(CC(=O)NCc2ccco2)Cc2ccc3c(c2)OCO3)cc1	-27	0.4	-3.0	-1.1%	-6	-2
Cc1cccn2c(=O)c3cc(S(=O)(=O)c4ccccc4)c(=N)n(CC4CCCO4)c3nc12 (stereo not given)	-7	0.3	-0.1	6.7%	-2	-10
OCCC#Cc1ccc(CN2CCN(Cc3ccsc3)C(CCO)C2)cc1 (stereo not given)	-21	0.2	-3.5	-0.7%	1	-19
Cc1c(Cl)cccc1NC(=O)c1ccc2c(c1)nnn2C1CCCC1	.	-1.1	.	7.5%	.	17
Cc1cnc(CN(C)C(=O)C2CCC(=O)N(CCc3cccc(F)c3)C2)[nH]1 (stereo not given)	-6	0.2	0.5	3.0%	2	-13
CCCN1CCc2c(sc3nc(SCC)n(-c4ccc(OC)cc4)c(=O)c23)C1	0	-0.2	-0.3	8.1%	1	0
O=c1[nH][nH]c(=O)c2cc([N+](=O)[O-])ccc12	1&-2	-0.4&0.6	-2.3&-3.4	1.0%&1.0%	3&7	-19&12
CN(CC(=O)Nc1ccc2c(c1)OCCO2)Cc1nc2ccccc2c(=O)[nH]1	-1	0.8	-1.4	1.9%	-8	12
COc1ccc(S(=O)(=O)N2CN(CCc3ccc(OC)c(OC)c3)c3nc4ccccc4nc32)cc1	-22	0.1	-2.2	-0.9%	5	-10
Cc1ccc(C)c(Nc2c([N+](=O)[O-])ccc3nonc23)c1	12	2.6	1.5	2.3%	0	-14
O=c1c2c3c(sc2nc2n1CCCCC2)CCCC3	-1	-0.4	-1.2	-0.7%	3	4
Cc1ccc([N+](=O)[O-])cc1N	-8	0.2	-1.5	-0.4%	-7	5

In the list so far, these have a CF3 group:
SMILES	D2 PAM	TRPML1 ag	D2 agonist	PINK1 modulator	Six1-Eya2 blk	TRPML1 inh
O=C(NCCC1=CCCCC1)C1CCN(S(=O)(=O)c2cccc(C(F)(F)F)c2)CC1	1	1.2	1.5	0.6%	1	-5
O=C(CN1C(=O)CCc2cc(Br)ccc21)Nc1ccc(OC(F)(F)F)cc1	.	1.6	.	-1.7%	.	7
COc1cc(/C=C/c2cc(C(F)(F)F)[nH]c(=O)n2)cc(OC)c1OC	-12	-0.3	-0.4	-2.0%	7	-25
CCOC(=O)C1CCN(C(=O)CN(c2ccc(Cl)c(C(F)(F)F)c2)S(C)(=O)=O)CC1	-16	0.1	-3.1	0.5%	0	9
CN(CC(=O)Nc1ccccc1C(F)(F)F)C(=O)Cc1ccc(S(=O)(=O)N2CCOCC2)s1	11	-0.2	0.2	-1.5%	1	-24

Bioassay records deposited in PubChem by National Center for Advancing Translational Sciences (NCATS).
